miR-21 reporter = qHTS Assay for Modulators of miRNAs and/orActivators of miR-21; 340,000 tested, under 10 active; Potency, µM (top dose mostly 38.3 µM), inactives show top-dose reporter change, positive = more light; HeLa miR-21 FLuc reporter, luciferase, 48 h; AID 2288, 2010; active = well fitted rising curve with a large enough effect; inconclusive = small, poorly fitted or top-dose-only effect; inactive = no such curve, though single readings can be large or run the other way;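 note: % of control where 0% means no effect; miR-21 action dims this reporter so a rising signal means less miR-21 action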
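HeLa miR-21-FLuc reporter line, endogenous miR-21; 2000 cells/well in DMEM/10% FBS; compound titration up to ~40uM final, 48 h, 37 degree Celsius; luciferase detection reagent, 15 min lysis, CCD luminescence.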
GLA inh pH 4.5 = qHTS Assay for Inhibitors of Human alpha-Galactosidase at pH 4.5; purified enzyme, 4-MU-alpha-Gal fluorescence, pH 4.5; 230,000 tested, under 10 active; Alpha-galactosidase A (Homo sapiens), P06280; activity change, negative = inhibition, % at 105 µM; inconclusive = small, poorly fitted or top-dose-only inhibition, or a rising curve; inactive = flat fitted curve, though single readings scatter; no compound was filed as active;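 note: 0% = full activity with enzyme and -100% = basal without enzyme; dose as in the result columns while the protocol names 77 µM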
Rango-impB inh = qHTS Assay for Inhibitors of Rango (Ran-regulated importin-beta cargo) - Importin beta complex formation; Importin subunit beta-1 (Homo sapiens), Q14974; Rango CFP/YFP FRET sensor + importin beta, 45 min; Potency, µM (series often up to 92.2 µM), without a hit: at the top dose inhibition of complex formation; 340,000 compounds, 0.031% hits; AID 540263, 2011; active = rising FRET ratio curve, often small or poorly fitted; inconclusive = mostly compound fluorescence or quenching in the first reads; inactive = flat curves in all reads;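 note: potency is the fitted concentration of half-maximal effect; 0% = DMSO wells and 100% = buffer wells lacking importin beta; nearly all actives have a fitted effect of over 15% in size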
Target sequence (Q14974 whole entry, looked up): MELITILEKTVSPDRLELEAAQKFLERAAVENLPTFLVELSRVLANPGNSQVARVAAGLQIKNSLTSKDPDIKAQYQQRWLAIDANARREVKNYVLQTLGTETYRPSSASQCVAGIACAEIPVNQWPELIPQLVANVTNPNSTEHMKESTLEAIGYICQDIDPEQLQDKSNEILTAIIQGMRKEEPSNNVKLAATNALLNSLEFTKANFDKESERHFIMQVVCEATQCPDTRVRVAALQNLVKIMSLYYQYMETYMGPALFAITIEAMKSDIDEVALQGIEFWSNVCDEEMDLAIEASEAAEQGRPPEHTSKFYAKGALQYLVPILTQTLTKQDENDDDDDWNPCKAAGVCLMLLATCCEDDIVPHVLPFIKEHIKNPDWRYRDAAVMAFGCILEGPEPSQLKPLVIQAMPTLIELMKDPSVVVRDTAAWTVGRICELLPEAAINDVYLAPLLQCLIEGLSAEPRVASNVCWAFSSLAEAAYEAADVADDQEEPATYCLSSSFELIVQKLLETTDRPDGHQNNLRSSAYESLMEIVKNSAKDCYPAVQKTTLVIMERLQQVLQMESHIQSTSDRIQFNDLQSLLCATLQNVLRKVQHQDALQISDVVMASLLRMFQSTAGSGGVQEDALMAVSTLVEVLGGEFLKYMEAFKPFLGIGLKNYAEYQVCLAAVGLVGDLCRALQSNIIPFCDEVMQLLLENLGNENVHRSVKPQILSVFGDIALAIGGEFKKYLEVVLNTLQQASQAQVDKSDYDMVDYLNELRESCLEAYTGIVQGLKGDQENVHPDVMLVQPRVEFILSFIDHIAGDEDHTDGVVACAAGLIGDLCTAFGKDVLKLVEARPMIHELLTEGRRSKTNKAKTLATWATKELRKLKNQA
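Inhibition scored from the CFP 486 nm/YFP 530 nm FRET ratio 45 min after adding 0.125 microM importin beta to 50 nM Rango biosensor preincubated 5 min with compound (room temperature, PBS with DTT, Tween-20, BSA). No-importin wells as positive control.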
Rango release inh = qHTS Assay for Inhibitors of RanGTP induced Rango (Ran-regulated importin-beta cargo) - Importin beta complex dissociation; Potency, µM (doses to about 46.1 µM), inactives show at the highest dose activity change, negative = inhibition; Biochemical FRET Rango-importin beta, RanGTP-induced dissociation; 340,000 compounds, 0.071% hits; AID 540253, 2011; active means falling FRET ratio curve, often poorly fitted, with flat reads before Ran was added; inconclusive means other falling curves, or compound fluorescence or quenching; inactive means flat or rising ratio curve;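 note: potency is the fitted concentration of half-maximal effect; % of control where 0% means no effect; nearly all actives have a fitted effect of over 45% in size; -100% = wells without RanGTP and RCC1; the record marks most hits as doubtful in a second field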
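FRET read at 45 min, room temperature: inhibitors block the CFP/YFP signal rise when RanGTP (0.6 uM Ran, 2 mM GTP, 0.2 uM RCC1) frees Rango (0.1 uM) from importin beta (0.25 uM). Pre-read after 5 min compound exposure flags interference.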
Active calls of the source: *; ? = inconclusive; nt = no result given; & = joins results of further samples; [ ] = dose if it differs, or a comment. This is a subset (hit frequency here may not be typical).

Below each SMILES – miR-21 reporter	GLA inh pH 4.5	Rango-impB inh	Rango release inh
> Cc1cc(NS(=O)(=O)c2ccc(NC(=O)c3c(F)c(F)c(F)c(F)c3F)cc2)nc(C)n1
    -10.8%	nt	?	14.2%
> CNCC(=O)Nc1ccc(Cl)c(C(F)(F)F)c1
    -3.9%	3.8	1.9%	5.6%
> O=C(c1ccc(CN2CCc3ccccc3C2)cc1)N1CCc2ccccc2C1
    -3.9%	-3.3	2.9%	0.2%
> COc1cccc(NC(=O)CCNS(=O)(=O)c2ccc(Br)s2)c1
    6.3%&2.7%	nt	-0.9%	1.7%
> CCOCc1c(C(=O)N2CCN(CCOc3ccc(Cl)cc3)CC2)oc2ccccc12
    nt	nt	0.5%	3.2%
> O=C(CN1C(=O)NC2(CCCC2)C1=O)N1CCN(C(=O)c2ccco2)CC1
    2.4%	5.9	2.0%	-8.7%
> Cc1cc(C(=O)NC(C)CCc2ccccc2)ccc1[N+](=O)[O-] (configuration not stated)
    -15.0%	nt	1.1%	60.0%
> Cc1ccc2c(c1)N(CCC(=O)NCCCN1CCCC1)C(=O)CO2
    -0.5%	nt	-2.9%	-11.1%
> CCOc1cc(C)c(S(=O)(=O)NC2CC(C)(C)NC(C)(C)C2)cc1C
    -13.6%	-4.5	4.4%	7.6%
> O=C(Cn1cnc2c(NCc3ccccc3)ncnc21)NCC1CCCO1 (configuration not stated)
    nt	nt	-0.4%	-0.6%

Record cards, as listed above:
Record of Cc1ccc2c(c1)N(CCC(=O)NCCCN1CCCC1)C(=O)CO2 : miR-21 reporter: -0.5%; GLA inh pH 4.5: nt; Rango-impB inh: -2.9%; Rango release inh: -11.1%
Record of O=C(c1ccc(CN2CCc3ccccc3C2)cc1)N1CCc2ccccc2C1 : miR-21 reporter: -3.9%; GLA inh pH 4.5: -3.3; Rango-impB inh: 2.9%; Rango release inh: 0.2%

(list continues)
Below each SMILES – miR-21 reporter	GLA inh pH 4.5	Rango-impB inh	Rango release inh
> Clc1ccccc1-c1nnc(-c2cccs2)o1
    -57.7%	-0.2	0.7%	7.8%
> COc1ccc(NC(=O)CN2C(=O)COc3ccc(C)cc32)c(OC)c1
    -3.5%	nt	3.8%	-26.5%
> COc1ccc(C(=O)C(CCCCC(CN(C)C)C(=O)c2ccc(OC)cc2)CN(C)C)cc1 (configuration not stated)
    -26.4%	-11.8	6.5%	-5.4%
> O=C(NCc1ccco1)C(c1ccco1)N(CCc1ccccc1)C(=O)Cn1nnc2ccccc21 (configuration not stated)
    -0.3%	3.1	1.2%	3.1%
> CCCS(=O)(=O)N1CCN(C(=O)COc2ccccc2)CC1
    -1.7%	6.4	3.9%	10.5%
> COc1ccc(CCN(C)C(=O)C2CC(=O)N(Cc3ccc(C)cc3)C2)cc1OC (configuration not stated)
    nt	nt	3.5%	9.7%
> Cc1ccc(CNC(=O)C2CCCN2C(=O)NCc2ccccc2)cc1 (configuration not stated)
    -0.8%	?	3.5%	25.1%
> COc1ccc(CC(=O)OCc2nnc(-c3ccccc3)o2)cc1
    -5.0%	2.2[21.1 µM]	-1.1%	-7.7%
> Cc1cc(C)nc(NC(N)=NC(C)c2ccccc2)n1 (configuration not stated)
    9.0%	8.3	-3.7%	-0.7%
> COCCNC(=O)C(=O)N/N=C(\C)CC(=O)Nc1cccnc1
    -5.8%	1.0	?	-11.5%
> CCOc1ccc(NC(=O)Cn2nnc(-c3ccccc3NC(=O)CC)n2)cc1
    6.1%	1.0	-1.1%	23.8%
> CC1(C)Oc2ccc3ccc(=O)oc3c2/C(=C/Nc2cccc(O)c2)C1=O
    11.8%	1.5	-2.7%	-17.1%
> CC(=O)Nc1ccc(S(=O)(=O)NCc2ccc(C(=O)NC(C)c3ccccc3)cc2)cc1 (configuration not stated)
    -1.9%	-18.8	3.8%	-9.5%
> COc1ccc(CC(=O)OCC(=O)NC2CC2)cc1
    nt	nt	0.3%	-9.1%
> O=C(O)CCC(=O)NNC(=O)c1cccc(Br)c1
    -6.7%	1.4	-1.0%	-5.3%
> COc1ccc(Cl)cc1-c1n[nH]c(=S)o1
    -0.7%	-2.0	4.4%	14.3%
> Cc1nn(-c2ccccc2)c(Cl)c1CN(C(=O)CCl)c1cccc2ccccc12
    ?	-1.9	?	6.3%
> COc1ccc(-n2ncc3c(SCC(=O)N4CCN(c5ccccc5OC)CC4)ncnc32)cc1
    0.1%	1.9	-0.8%	0.5%
> CCN(CC)CCCNC(CC(=O)Nc1cccc([N+](=O)[O-])c1)C(=O)O (configuration not stated)
    0.8%	1.1	4.6%	28.7%
> Cc1cc(C(=O)N2CCCC(CCC(=O)N3CCN(c4ccccn4)CC3)C2)c(C)o1 (configuration not stated)
    4.1%	-6.0	-2.2%	-14.7%
> Cc1ccc(NC(=O)c2ccc(OCc3c(C)noc3C)cc2)c(C)c1
    nt	nt	6.9%	20.2%
> COC(=O)c1sccc1Oc1ccc(Cl)cc1N1C(=O)CCC1=O
    -3.8%	2.5	0.8%	-6.0%
> Cc1sc2nc(SCC(=O)N(C)c3ccccc3)n(C)c(=O)c2c1C
    -0.9%	nt	-4.5%	-7.2%
> Cc1c(-c2ccccc2)oc2nc3c(c(=O)n(C)c(=O)n3C)n12
    -4.7%	6.4	nt	nt
> CC(C(=O)Nc1cccc([N+](=O)[O-])c1)N1CCN(C/C=C/c2ccccc2)CC1 (configuration not stated)
    -6.8%	-2.5	-3.8%	-8.0%
> CCC1CN(C(=O)N2CCC(C(=O)NCc3cccc(F)c3)CC2)c2ccccc2O1 (configuration not stated)
    8.0%	nt	0.7%	0.2%
> CN(C)C(CNS(=O)(=O)c1ccc(Cl)cc1)c1cccnc1 (configuration not stated)
    -4.9%	3.6	-1.8%	-11.0%
> CCCn1c(=S)[nH]c2cc(Cl)ccc21
    4.5%	1.5	-1.1%	-3.3%
> Cc1ccsc1C(=O)NNC(=O)C1CCCCC1C(=O)O (configuration not stated)
    -70.6%	-1.4	-0.7%	12.9%
> O=[N+]([O-])c1ccccc1/C=C/CN1CCN(Cc2ccc3c(c2)OCO3)CC1
    0.5%	nt	-0.1%	6.1%
> O=C(c1ccc(Br)o1)N1CCN(c2ccc3nnc(-c4ccccc4)n3n2)CC1
    17.3%	-2.3	-2.6%	-7.6%
> Cc1nnc(NC(=O)CCCCCN2C(=O)C3C4C=CC(C4)C3C2=O)s1 (configuration not stated)
    -1.0%	5.3	0.0%	6.8%
> CC(C)CNC(=O)c1coc(=O)c(Br)c1
    ?	-3.4	-0.6%	2.9%
> CSc1nc(C)cc(-n2ccc(=O)[nH]c2=O)n1
    -0.3%	-12.6	9.3%	15.5%
> COc1ccc(-c2nc(CS(=O)(=O)CC(=O)NC3CCCCCC3)c(C)o2)cc1
    -2.6%	nt	0.3%	8.6%
> COC(=O)c1noc(C)c1-c1ccnn1C(=O)c1ccc(Cl)cc1
    1.5%	2.6	-2.0%	-1.5%
> COc1ccccc1C(=O)Nc1cccnc1
    0.9%	-1.8	-5.6%	-11.7%
> COc1cc(C2c3sc(=O)[nH]c3SC3C(=O)N(c4ccc(Br)cc4)C(=O)C32)ccc1O (configuration not stated)
    -7.6%	-11.8	?	-22.5%
> CC(=O)Nc1ccc(NC(=O)c2c(-c3ccccc3Cl)noc2C)c(C)c1
    6.8%	nt	3.5%	0.2%
> Cc1cc2oc(=O)cc(CN3CCN(Cc4ccc5c(c4)OCO5)CC3)c2cc1C
    -3.1%	-10.0	0.5%	-5.3%
> COc1ccc(OC)c2cc3ccccc3cc12
    nt	nt	12.1%	-2.5%
> COc1ccc(NC(=O)c2ccccc2NS(=O)(=O)c2ccc(C)cc2)c([N+](=O)[O-])c1
    -2.4%	1.2	2.1%	15.5%
> CCOc1ccc(C(=O)NC(C(=O)NCC2CCCO2)C(C)C)cc1 (configuration not stated)
    -0.8%	-0.5	0.6%	8.8%
> COc1ccc(C(=S)Nc2ccc(C)cc2)cc1
    -54.3%	6.0	0.5%	-0.9%
> O=C(c1ccccc1)N1CCN(S(=O)(=O)c2ccccc2)CC1
    4.7%	4.2	-1.1%	14.2%
> Cc1ccc(S(=O)(=O)N2CCCCC2CCNC(=O)C(=O)NC2CCCC2)cc1 (configuration not stated)
    nt	nt	-3.3%	2.3%
> O=C(Nc1ccc(F)cc1)NC1CCCCC1
    -39.5%	0.1	0.4%	4.3%
> COc1ccc(Cc2nn3c(-c4ccccc4OC)nnc3s2)cc1
    -16.2%	0.1	-1.8%	3.7%
> Oc1ccc(-c2csc(-c3ccccc3)n2)cc1O
    -35.5%	-2.6	2.5%	-1.5%
> Cc1cccc(C)c1N1CCN(C(=O)N2CCCCC2)CC1
    -1.8%	13.3	1.7%	5.9%

Following part
Below each SMILES – miR-21 reporter	GLA inh pH 4.5	Rango-impB inh	Rango release inh
> CCCc1cc(=O)oc2c(C)c(OCC(=O)c3ccc(N4CCCC4)cc3)ccc12
    0.2%	8.0	-6.3%	23.1%
> COc1ccccc1C(=O)Nc1ccc(C(=O)/C=C/c2cccs2)cc1
    -27.5%	-7.6	-2.8%	-22.4%
> CC(C)Oc1ccccc1-c1cc(C(=O)N/N=C/c2cccnc2)c2ccccc2n1
    11.4%	nt	0.4%	-5.7%
> COCCNC(=S)N/N=C(\C)c1ccc(-n2ccnc2)cc1
    23.3%	-3.8	-5.3%	5.0%
> N#CC(=NCc1cccnc1)C1=C(O)c2ccccc2C1=O
    -0.5%	-6.2	0.3%	-10.6%
> CCN(CCn1cccn1)C(=O)c1cc(COc2cc(C)ccc2C)on1
    -27.4%	nt	4.0%	1.3%
> COc1ccc(C(=O)/C=C/c2ccc(OC)c(COc3ccccc3F)c2)cc1
    -8.4%	-12.9	-1.6%	4.6%
> Cc1cccc(NC(=O)C2Cc3ccccc3CN2C(=O)OCc2ccccc2)c1C (configuration not stated)
    -7.3%	-8.1	-3.3%	0.0%
> COc1ccc([N+](=O)[O-])cc1NC(=O)COC(C)=O
    -1.3%	7.9[21.1 µM]	-1.1%	0.8%
> COc1ccc(-c2nnn(CC#N)n2)cc1OC
    -0.4%	4.6	1.1%	0.2%
> Cc1ccc(Cc2nc(-c3cccc(C)c3)no2)cc1
    -54.2%	-2.3	3.7%	-5.1%
> O=C1CNC(=S)N1CCc1ccc(O)c(O)c1
    -0.5%	3.8	10.0%	-10.1%
> Clc1ccc(-c2cc(-c3nnc4n3CCCCC4)c3ccccc3n2)cc1
    0.7%	-4.5	-2.6%	5.2%
> Cc1cc(C(=O)COC(=O)c2ccc[nH]c2=O)c(C)n1-c1ccc(F)cc1
    -28.8%	7.9	2.6%	-5.9%
> CNc1cc(N2CCCC2)ccc1[N+](=O)[O-]
    1.0%	2.9	-1.5%	-6.4%
> C#CCNC(=O)C1=C[C@H](c2coc3ccccc3c2=O)[C@@H](CCCO)[C@H](OCC)O1
    -8.6%	2.9	3.6%	7.4%
> O=C(NNC(=O)C12CC3CC(CC(C3)C1)C2)c1cnccn1
    -4.7%	-2.8	-0.9%	-17.7%
> c1ccc(-c2nc(NCCCn3ccnc3)c3ccccc3n2)cc1
    16.4%	7.1	?	-2.6%
> CCCCNC(=S)NNC(=O)c1cc(-c2cccnc2)nc2ccccc12
    -4.0%	nt	-1.1%	0.1%
> Cc1onc(-c2ccccc2)c1C(=O)Nc1sc2c(c1C#N)CCC(C)C2 (configuration not stated)
    14.7%	1.9	-3.3%	-2.3%
> COC(=O)c1cccc(-n2c(CCC(=O)O)ccc2-c2cccs2)c1
    -9.0%&-2.0%	-4.9	?	-9.7%

Compound activity from PubChem.
